MLL AF4-AF9 inh – blocks AF4 peptide binding to human AF9; AlphaScreen, biotin-AF4 peptide binding to FLAG-AF9; inhibition, % at 10 µM; 350,000 compounds, 0.47% hits; P42568;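 active = every replicate reaching a set inhibition limit, whatever the replicate mean, cut at about 25% in these data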;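 note: 0% = plate neutral control median and 100% = total signal loss; the record names both 10 and 1 µM as test concentration; the first replicate is given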
Target sequence (P42568 whole entry, looked up): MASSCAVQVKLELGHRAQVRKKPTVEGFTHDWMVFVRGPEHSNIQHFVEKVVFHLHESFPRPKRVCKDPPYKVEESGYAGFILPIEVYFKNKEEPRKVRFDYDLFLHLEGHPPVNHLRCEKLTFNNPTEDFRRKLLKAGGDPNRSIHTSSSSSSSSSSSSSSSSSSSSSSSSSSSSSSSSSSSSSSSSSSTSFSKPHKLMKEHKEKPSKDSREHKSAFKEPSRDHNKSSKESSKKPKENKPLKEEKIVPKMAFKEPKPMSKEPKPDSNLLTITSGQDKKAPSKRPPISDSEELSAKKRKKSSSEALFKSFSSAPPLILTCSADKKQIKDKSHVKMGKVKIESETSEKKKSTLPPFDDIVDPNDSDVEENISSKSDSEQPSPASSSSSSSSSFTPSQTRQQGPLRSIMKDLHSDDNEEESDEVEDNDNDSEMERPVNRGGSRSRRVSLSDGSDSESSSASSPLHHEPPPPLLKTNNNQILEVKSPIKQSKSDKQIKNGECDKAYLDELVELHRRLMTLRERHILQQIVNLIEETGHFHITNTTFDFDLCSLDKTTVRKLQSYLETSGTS
Vif TR-FRET – HIV-1 Vif–A3G interaction blockers – biochemical, TR-FRET, GST-Vif 1-94, biotin-A3G peptide, dose response retest, primary screen (AID 1117319) | TR-FRET GST-Vif / biotin-A3G peptide binding; higher % means a stronger effect; test concentration not given here; strong numbers were not always called active | inhibition, %; hits with a dose series show IC50 in µM | 260,000 compounds, 0.57% hits;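 active = above the screen mean plus three standard deviations and confirmed in dose response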;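 note: Vif residues 1-94 fused to GST binding biotinylated APOBEC3G peptide 110-148; 0% = full assay without inhibitor and 100% = GST in place of GST-Vif; retest series ran down from 100 µM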
Numbers without * were called inactive; & = joins results of further samples.

Structure	MLL AF4-AF9 inh	Vif TR-FRET
CCN(CC)C(=O)C1=C(C)N(Cc2ccccc2)C(=O)C(CC(=O)NCCCCc2ccccc2)C1 (centres undefined)	-12	-2%
CC(C)C(C)NC(=O)CSc1ccc(S(=O)(=O)N2CCOCC2)cn1 (centres undefined)	-4.2	-13%
Cc1ccc(S(=O)(=O)CCC(=O)OCC(=O)Nc2cccc(S(=O)(=O)N3CCCCC3)c2)cc1	-3.5	-7%
CC(C)CN(CC(C)C)c1nn[nH]n1	-6.9	-5%
CC(=O)c1ccc(NC(=O)c2ccc(-n3cnnn3)cc2)cc1	-1.5	-13%
COc1ccc(C(C)(C)C)cc1S(=O)(=O)NCC1CCCO1 (centres undefined)	-1.8	-7%
COc1ccc(C(=O)OCc2cc(=O)oc3cc(C)ccc23)cc1S(=O)(=O)N1CCOCC1	2.2	-1%
COc1ccc2c(c1)c1c(c(=O)n(-c3ccc(C)cc3)c(=O)n1CC(=O)NCC1CCCO1)n2C (centres undefined)	-5.7	-15%
CCCCN1C=C(C(C)=O)C(=O)CC1	-2.0	4%
COC(=O)C1CC2=C(CCC2=O)N(c2ccccc2)C1=O (centres undefined)	-0.7	2%
CN(C(=O)c1cccc(NC(=O)Cc2ccc(NC(=O)C3CCN(S(=O)(=O)c4cccc([N+](=O)[O-])c4)CC3)cc2)c1)C1CCCCC1	-0.3	4%
CC(C)Sc1ncnc2[nH]ncc12	-0.6	9%
CC12CCC=CC1=C(C=O)C1C2CCC2(C)C(O)CCC12 (centres undefined)	-1.8	4%
CC(C)C1C(=O)N(Cc2cn(CC3CCCCC3)nn2)CCS(=O)(=O)N1Cc1ccc(-c2cccc(CO)c2)cc1 (centres undefined)	-2.4	-4%
CC(=O)Nc1nc(-c2ccc(-c3ccccc3)cc2)cs1	-3.1	0%
NC(=O)C1CCN(C(=O)c2ccc(NS(=O)(=O)c3ccc(Br)s3)cc2)CC1	-12	-3%
CCCOc1ccccc1NC(=O)/C=C/c1ccc(OC)c(S(=O)(=O)N2CCOCC2)c1	1.4	-3%
CC(=O)NC(CC(=O)Nc1cccc(S(=O)(=O)N2CCOCC2)c1)c1ccccc1 (centres undefined)	12	-1%
Cc1ccc(S(=O)(=O)N(C)C)cc1NC(=O)C1CCN(C(=O)Nc2ccccc2)CC1	0.6	-8%
C[C@@H]1CN([C@H](C)CO)C(=O)CCCn2nncc2CO[C@H]1CN(C)C(=O)Nc1cccc2ccccc12	0.8&2.3	-7%
O=S(=O)(Nc1ccccc1F)c1ccc(Cl)nc1	-2.3	8%
Cc1ccc(NC(=O)c2ccco2)cc1	2.5	-8%
CCOC(=O)c1c(-c2ccc3ccccc3c2)csc1NC(=O)CCCC(=O)O	0.2	1%
Cc1ccc(C)c(C(=O)CN2C(=O)NC3(CCCCCC3)C2=O)c1	-0.7	-9%
CC1CC(C)CN(C(=O)COC(=O)c2cccc(S(=O)(=O)N(C)c3ccccc3)c2)C1 (centres undefined)	4.0	-6%
CC12CCC(C(S(=O)(=O)Nc3ccccc3)C1=O)C2(C)C (centres undefined)	0.0	-9%
O=C1NC(=O)C2(CCCc3c([N+](=O)[O-])cccc32)N1 (centres undefined)	-2.8	8%
COc1ccc(CN(C)C(=O)C(Cc2ccccc2)NC(=O)c2ccccc2)c(OC)c1OC (centres undefined)	1.9	-9%
CCCCCCN1C[C@@H](O)[C@H](n2cc(COC(=O)c3ccccc3)nn2)C[C@@H]1c1ccc(C)cc1	1.5	-5%
C[C@@H]1CN([C@@H](C)CO)C(=O)CCCn2nncc2CO[C@@H]1CN(C)S(=O)(=O)c1ccc(Oc2ccccc2)cc1	-1.4&-16&0.0	1%
COc1ccc(OC)c(NC(=O)CCNC(=O)N2CC(=O)Nc3ccccc32)c1	-0.7	5%
COc1ccc(S(=O)(=O)N2CCCCC2)cc1NC(=O)c1ccc(OC)c(OC)c1	0.1	-18%
C#CCN(C[C@@H]1[C@@H](OC(=O)NCc2ccc(OC)c(OC)c2)[C@@H](OC(=O)NCc2ccc(OC)c(OC)c2)CN(C(=O)OC(C)C)N1C(=O)OC(C)C)S(=O)(=O)c1ccc(C)cc1	-12	-1%
CN1OC[C@@H]2CN(C(=O)C(C)(C)C)[C@H](c3cccc(Oc4ccccc4)c3)C[C@@H]21	-3.3	62%
Cc1cn(C2CCCO2)c(=O)nc1N (centres undefined)	1.7	-6%
C[C@H]1CN([C@@H](C)CO)C(=O)c2cc(Br)cnc2O[C@@H]1CN(C)C(=O)NC1CCCCC1	-2.0&-1.6	-7%
COc1cccc(C2CC(=O)Nc3cc(C)c(C)cc32)c1 (centres undefined)	-1.7	3%
O=C(NC(=S)Nc1cccnc1)c1cccc(Cl)c1	-4.8	-5%
Cc1ccn2c(Cc3ccccc3)c(-c3ccc(F)cc3)nc2c1	2.6	3%
O=C(COc1ccc(Cl)cc1)N1N=C(c2cccs2)CC1c1ccco1 (centres undefined)	-21	-1%
CNC(=O)OCc1nc(SSC(C)(C)C)n(C)c1COC(=O)NC	-54	-4%
CCN(CC)S(=O)(=O)c1ccc(C(=O)NC(=S)N2CCN(c3ccccc3O)CC2)cc1	2.4	5%
O=C1Nc2ccccc2SC1c1ccccc1Cl (centres undefined)	1.6	1%
CCn1c(SCC(=O)N(C)c2c(N)n(Cc3ccccc3)c(=O)[nH]c2=O)nnc1-c1cccs1	3.8	2%
COc1cccc(/C=C/C(=O)OCC(=O)NC2CCCCCC2)c1	-8.8	1%

Six entries from above, ordered by formula weight, largest number first.
Structure	MLL AF4-AF9 inh	Vif TR-FRET
CCn1c(SCC(=O)N(C)c2c(N)n(Cc3ccccc3)c(=O)[nH]c2=O)nnc1-c1cccs1	3.8	2%
CCN(CC)S(=O)(=O)c1ccc(C(=O)NC(=S)N2CCN(c3ccccc3O)CC2)cc1	2.4	5%
COc1ccc(OC)c(NC(=O)CCNC(=O)N2CC(=O)Nc3ccccc32)c1	-0.7	5%
CNC(=O)OCc1nc(SSC(C)(C)C)n(C)c1COC(=O)NC	-54	-4%
COc1cccc(/C=C/C(=O)OCC(=O)NC2CCCCCC2)c1	-8.8	1%
O=C1Nc2ccccc2SC1c1ccccc1Cl (centres undefined)	1.6	1%

New compounds follow.
Structure	MLL AF4-AF9 inh	Vif TR-FRET
O=C(NCc1cccnc1)c1cccc(S(=O)(=O)Nc2ccc(F)cc2)c1	-2.6	1%
CCN(CC)CCCn1c(SCC(=O)NCC2CCCO2)nc2ccccc2c1=O (centres undefined)	2.1	2%
Cc1c(NS(=O)(=O)c2cc(C(=O)NC(C)c3ccccc3)ccc2Cl)c(=O)n(-c2ccccc2)n1C (centres undefined)	0.9	0%
O=C(CSc1nnc2n1CCCCC2)NCc1ccccc1	-41	2%
Cc1ccc(S(=O)(=O)N2CCCCC2)cc1NC(=O)CCNC(=O)c1ccc([N+](=O)[O-])cc1	1.8	-2%
CC1=C(C(=O)N(C)C)CC(CC(=O)NCCCCc2ccccc2)C(=O)N1Cc1ccc(C(C)(C)C)cc1 (centres undefined)	-2.8	-2%
CC(=NNC(=S)Nc1ccccc1)c1ccccn1	4.2	5%
CCc1nc(N)nc(N)c1-c1ccc(Cl)c(N=[N+]=[N-])c1	0.4&3.9	-3%&-4%
COc1ccc(S(=O)(=O)NCCC(=O)OCc2cc(=O)oc3cc(C)ccc23)cc1[N+](=O)[O-]	-0.3	-4%
OC(CNC1CCCCC1)CON=C1CCSc2c(Cl)cccc21 (centres undefined)	8.2	-4%
O=C(Oc1ccc(Br)cc1)C1CCN(C2=NS(=O)(=O)c3ccccc32)CC1	-1.4	0%
CC(C)(C)c1ccc(C(=O)NC(=O)COC(=O)c2ccco2)cc1	-0.9	-17%
CC(=O)c1ccc(S(=O)(=O)N(C)CC(=O)Nc2cc(C)on2)cc1	0.3	0%
CCCc1nnc(NC(=O)c2oc3ccccc3c2COCC)s1	-1.6	-3%
C[C@H]1CN([C@@H](C)CO)C(=O)c2cc(Br)cnc2O[C@H]1CN(C)C(=O)C1CC1	-2.0&-2.4	1%
Cc1ccc(C)c(NC(=O)CSc2nc(N)c(NC(=O)c3cccs3)c(=O)[nH]2)c1	-2.2	-4%
COC(=O)[C@@]1(Cc2ccccc2)[C@H]2C(=O)N(Cc3ccccc3)C(=O)[C@H]2[C@H]2CN=C(SCC(=O)c3ccccc3)N21	-2.5	-1%
CC(=O)Nc1ccc2c(c1)Cc1c(F)cccc1-2	-4.6	1%
C=C1c2cccc(OC)c2O[C@H](C(=O)OCC)[C@@H]1CC(CC)CCCC (some centres undefined)	-0.6	14%
CC(=O)Nc1ccc2c(c1)Cc1cc(N3C(=O)C=CC3=O)ccc1-2	-6.7	52%
O=[N+]([O-])c1ccc(O)c(C=NNc2ccc(S(=O)(=O)O)cc2)c1	-0.2	7%
O=C1CN(S(=O)(=O)c2ccccc2Cl)CCN1	0.0	6%
Cc1ccc(C(=O)Nc2ccncc2)cc1S(=O)(=O)N1CCCCC1	-1.9	2%
COc1ccc(NC(C)=O)cc1NC(=O)c1c(C)noc1C	-22	1%
Cc1ccc(S(=O)(=O)SC/C=C/CSS(=O)(=O)c2ccc(C)cc2)cc1	-2.7	13%
COCC(=O)Nc1ccc2c(c1)[C@@H]1C[C@H](CC(=O)NCc3ccccc3)O[C@@H](CO)[C@@H]1O2	0.5&-3.7	-3%
O=C(CCCCn1ccc(=O)[nH]c1=O)Nc1ccc(O)c(C(=O)O)c1	-1.7	-12%
COc1cc(/C=C/C(=O)OCC(=O)Nc2ccc3[nH]c(=O)[nH]c3c2)ccc1OC(F)F	-2.1	-6%
CC(C)C[C@@H](CNCC(=O)[C@H](Cc1c[nH]c2ccccc12)NC(=O)c1[nH]cnc1C(=O)N[C@@H](C)CN)NC(=O)c1nc[nH]c1C(=O)N[C@@H](Cc1ccccc1)C(=O)O	5.4	-3%
COc1ccc(CNC(=O)C2CCN(S(=O)(=O)N3CCC(C)CC3)CC2)c(OC)c1	3.0	0%
CC(=O)c1ccc(OCC(=O)Nc2ccc3c(c2)OCO3)cc1	0.0	-1%
CSc1ncnc2c1ncn2CCCNCc1ccc(C)o1	-2.1	-6%
N#CC(=C(O)COC(=O)CCC1CCCCC1)c1nc2ccccc2[nH]1	3.8	-1%
O=C(CCCCCCCC(=O)N1CCCCCC1)N1CCCCCC1	0.8	-5%
C1CCC(NC2=NCCO2)CC1	2.1	-6%
Cc1cc(NC(=O)COC(=O)CCn2c(C)csc2=O)c([N+](=O)[O-])cc1C	4.9	-5%
CC(CC(c1ccccc1)N1CCc2ccccc2C1)=NO (centres undefined)	-1.8	2%
CN(C(=O)c1cccc(NC(=O)Cc2ccc(NC(=O)C3CCN(C(=O)C4CC4)CC3)cc2)c1)C1CCC1	0.6	-3%
Nc1c(Cl)cc2c(c1Br)Cc1ccccc1-2	-0.1	-6%
Cc1ccc(C(=O)NNC(=O)c2ccc(S(=O)(=O)N(C)c3ccccc3)cc2)cc1	0.1	-14%
COc1cc2c(cc1OC)[C@@H](NC(=O)CCC1CCCCC1)[C@H](O)C2	-2.5	-1%
CC(C)C1C(=O)N(Cc2cn(Cc3ccco3)nn2)CCS(=O)(=O)N1Cc1ccc(-c2ccc(F)nc2)cc1 (centres undefined)	-0.2	8%
O=C(Nc1cccc(Cl)c1)OCCOCCOC(=O)Nc1cccc(Cl)c1	-2.1	-3%
Cc1ccc2nc(N3CCN(C(=O)c4ccccc4F)CC3)c(C#N)cc2c1	1.3	0%
CC(C)(C)Cc1c(-c2ccc(F)cc2)nc2ccc(Cl)cn12	-4.3	2%

Some of the entries so far, field by field.
> CC(C)C1C(=O)N(Cc2cn(Cc3ccco3)nn2)CCS(=O)(=O)N1Cc1ccc(-c2ccc(F)nc2)cc1 (centres undefined)
- MLL AF4-AF9 inh: -0.2
- Vif TR-FRET: 8%
> CN(C(=O)c1cccc(NC(=O)Cc2ccc(NC(=O)C3CCN(C(=O)C4CC4)CC3)cc2)c1)C1CCC1
- MLL AF4-AF9 inh: 0.6
- Vif TR-FRET: -3%
> C1CCC(NC2=NCCO2)CC1
- MLL AF4-AF9 inh: 2.1
- Vif TR-FRET: -6%

(further entries)
Structure	MLL AF4-AF9 inh	Vif TR-FRET
CCN(Cc1nc2cc(Cl)ccc2c(=O)[nH]1)C(=O)CN1C(=O)NC2(CCCCC2C)C1=O (centres undefined)	-3.4	-6%
Cc1nc2sccn2c(=O)c1S(=O)(=O)NCC1CCN(Cc2ccc(Cl)cc2)CC1	9.5	3%
COCCCn1c(C)cc(C(=O)COC(=O)C23CC4CC(CC(O)(C4)C2)C3)c1C	2.7	-2%
CCCCn1c2c(cc(C(=O)OC)c1=O)C(=O)CCC2	1.9	1%
c1ccc(CSc2nnc(NC3CCCCC3)s2)cc1	-0.4	3%
CCOC(=O)C1=CN(Cc2cccc(F)c2)S(=O)(=O)NC1c1ccccc1 (centres undefined)	-5.1	-2%
Cn1nc(C#N)c(=O)[nH]c1=O	4.6	-6%
CCCCCCC(=O)Oc1cccc(C2=CC(=O)CC(C)(C)C2=O)c1	11	3%
Cc1ccc(S(=O)(=O)N2C[C@H]3C(=O)C[C@@H](c4ccccc4)N(S(=O)(=O)c4ccc(C)cc4)[C@H]3C[C@H]2c2ccccc2)cc1	1.5	-10%

Source: PubChem BioAssay (several laboratories)

An excerpt (hit frequency here may not be typical).
